Marburg entry inh: blocks Marburg virus binding to or entry into cells; Marburg virus pseudotyped entry inhibition, cell reporter; control for the full effect not named in the record; about a third of the inactives were read at about 46 µM; Potency, µM (titrated, usually from 37.8 µM), without a hit: at the top dose activity change, negative = inhibition, most hits filed as inhibitors; actives 1.8% (n = 300,000); active = well fitted inhibition curve with a large enough effect; inconclusive = small, poorly fitted or top-dose-only effect, or effect the other way; inactive = flat fitted curve, though single readings scatter; tested in HEK293 cells; about a fifth of its hits are not listed in these tables; further: on the % scale 0 is the no-effect control and ±100 the full control effect; luciferase read-out
Cruzain inh noDet: cruzain (T. cruzi) inhibition without detergent. purified cruzain, Z-FR-AMC fluorescence, no detergent. Potency, µM, for the others: max response, negative = inhibition, most hits filed as inhibitors. actives 2.3% (n = 200,000). P25779. AID 1476; active means well fitted curve in the direction sought with a large enough effect; inconclusive means small, poorly fitted or top-dose-only effect, or another doubt; inactive means no such curve, though single readings can be large; an effect the other way counts as inactive or inconclusive;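 further: plate controls were enzyme without inhibitor for no effect and buffer without enzyme for full effect; nearly all actives have a fitted effect of over 40% in size; top concentration of the series not given in the record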
Target sequence (P25779 123-467 limits assumed): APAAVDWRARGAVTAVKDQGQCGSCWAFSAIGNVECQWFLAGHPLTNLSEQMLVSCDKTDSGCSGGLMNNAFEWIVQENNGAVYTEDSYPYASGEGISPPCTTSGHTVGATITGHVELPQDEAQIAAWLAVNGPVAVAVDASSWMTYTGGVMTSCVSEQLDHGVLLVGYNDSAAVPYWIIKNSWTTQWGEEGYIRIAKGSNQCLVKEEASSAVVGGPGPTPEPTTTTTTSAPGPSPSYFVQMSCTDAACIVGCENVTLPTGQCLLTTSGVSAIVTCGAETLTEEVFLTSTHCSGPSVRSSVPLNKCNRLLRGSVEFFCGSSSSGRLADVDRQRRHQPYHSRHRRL
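Detergent-free condition (0.00005% Triton X-100) in acetate buffer pH 5.5 with DTT. 1.5 nM enzyme and compound were pre-mixed 15 min, then 2 uM Z-FR-AMC substrate added; reaction progress from fluorescence change between first and third reads (60 s).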
LASV entry inh: blocks Lassa virus binding to or entry into cells; actives 1.2% (n = 300,000); Lassa virus pseudotype entry inhibition, cell reporter; control for the full effect not named in the record; Potency, µM (doses to about 37.9 µM), for inactives: top-dose activity change, negative = inhibition, hits mostly inhibitors; active means well fitted inhibition curve with a large enough effect; inconclusive means small, poorly fitted or top-dose-only effect, or effect the other way; inactive means flat fitted curve, though single readings scatter; tested in HEK293 cells; further: on the % scale 0 is the no-effect control and ±100 the full control effect; nearly all actives have a fitted effect of over 50% in size; luciferase read-out
SARS PLpro yeast: blocks SARS-CoV papain-like protease in a yeast assay. S. cerevisiae expressing SARS-CoV PLpro, growth rescue; control for the full effect not named in the record. Potency, µM (highest dose often 32.9 µM), inactives show at the highest dose activity, positive = growth rescue. actives 0.19% (n = 330,000). AID 485353; further: 0% is about no effect; nearly all actives have a fitted effect of over 55% in size; growth read by luminescence after 48 h
Cruzain Triton: cruzain (T. cruzi) inhibition with detergent; P25779; purified cruzain, Z-FR-AMC fluorescence, 0.01% Triton; Potency, µM, for the others: max response, negative = inhibition, most hits filed as inhibitors; actives 0.43% (n = 200,000); AID 1478; active means well fitted curve in the direction sought with a large enough effect; inconclusive means small, poorly fitted or top-dose-only effect, or another doubt; inactive means no such curve, though single readings can be large; an effect the other way counts as inactive or inconclusive;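 further: plate controls were neutral wells for no effect and buffer without enzyme for full effect; nearly all actives have a fitted effect of over 40% in size; top concentration of the series not given in the record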
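Detergent-containing run (0.01% Triton X-100) in acetate buffer pH 5.5 with 5 mM DTT: enzyme at 1.5 nM final, 15 min compound preincubation at room temperature, then 2 uM Z-FR-AMC substrate. Activity taken as 60 s fluorescence increase at 360/450 nm.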
NS1 inh: influenza NS1 inhibition | S. cerevisiae slowed by influenza A NS1, growth recovery by OD600 | Potency, µM (doses to about 46.1 µM), inactives show at the top dose activity, positive = more growth | actives 0.4% (n = 270,000); further: actives are rising curves; nearly all actives have a fitted effect of over 50% in size
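S. cerevisiae expressing influenza A NS1, grown in glucose, washed, then diluted 1:100 into pH 6.0 -URA galactose medium with 23 nl compound. Growth recovery read as OD600; NS1-free strain serves as control.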
StopGo reporter: lowers the luciferase signal of an FMDV 2A StopGo reporter; actives 1.2% (n = 410,000); human cells with a luciferase reporter of 2A StopGo recoding; control for the full effect not named in the record; Potency, µM (highest dose often 57.9 µM), without a hit: at the highest dose signal change, negative = less light; active = well fitted falling curve with a large enough effect; inconclusive = small, poorly fitted or top-dose-only effect; inactive = no such curve, though single readings can be large or run the other way; tested in HEK293T cells; further: on the % scale 0 is the no-effect control and ±100 the full control effect; nearly all actives have a fitted effect of over 45% in size; luciferase light after 4 h
RE007 growth inh: less growth of the S. pombe RE007 Vpr strain; S. pombe RE007 Vpr strain, BacTiter-Glo ATP luminescence, 24 h; control for the full effect not named in the record; Potency, µM (highest dose often 92.2 µM), inactives show at the top dose activity change, negative = less growth; actives 0.21% (n = 360,000); active = well fitted falling curve with a large enough effect; inconclusive = small, poorly fitted or top-dose-only effect; inactive = no such curve, though single readings can be large or run the other way;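 further: on the % scale 0 is the no-effect control and ±100 the full control effect; nearly all actives have a fitted effect of over 50% in size; the assay follows cell death caused by Vpr and the record does not say whether a fall means rescue or toxicity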
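Fission yeast RE007 carrying one integrated HIV-1 vpr copy, seeded at OD 0.01 in PMG+AL medium with 23 nL pinned compound. Grown 24 h at 30 degrees; viability read by BacTiter-Glo luminescence after 5 min.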
* marks the source's active call; other numbers are inactive results; ? = inconclusive; · = no result given; & = joins results of further samples; [ ] = remark or other dose. Unless noted, the call rests on the fitted dose curve; in most records, active means well fitted rising curve with a large enough effect; inconclusive means small, poorly fitted or top-dose-only effect; inactive means no such curve, though single readings can be large or run the other way. Potency means the concentration at half of the fitted maximal effect. Outcome played no part in choosing rows (roughly 4.8% active in at least one column).

nr	SMILES	Marburg entry inh	Cruzain inh noDet	LASV entry inh	SARS PLpro yeast
1	CCN1CCN(C(=O)Cc2ccccc2OC)CC1	2%[46.1 µM]	·	6%[46.1 µM]	-1%
2	C(=N\Nc1ccc2nncn2n1)/c1ccco1	0%	·	1%	-5%
3	O=C(CCN1CCN(c2ccccc2)CC1)NNC(=S)Nc1ccccc1	·	·	·	1%
4	Cc1cccn2c(=O)c3cc(C(=O)NC(C)c4ccccc4)c(=N)n(CCOCCO)c3nc12 (stereo not given)	?	?	0%[46.1 µM]	·
5	CC(C)NC(=O)/C(C#N)=C/c1cccc(NC(=O)c2ccccc2Cl)c1	?	-2%	7%	-61%
6	Cc1cc(C(=O)OCC(=O)N(C)C2CCS(=O)(=O)C2)c(C)n1-c1ccccc1 (stereo not given)	1%	2%	-22%	5%
7	CCN(CC)CCNC(=O)c1cccc(NC(=O)C(=O)c2ccccc2NC(C)=O)c1	5%[46.1 µM]	·	16%	0%
8	Cc1ccc(C(=O)NCCC(=O)N2CCC3(CC2)NCCc2[nH]cnc23)cc1C	·	·	·	-4%
9	O=C(Nc1ccc2c(c1)OCCO2)C1CCCN(S(=O)(=O)c2cccnc2)C1 (stereo not given)	·	-20%	·	6%
10	COc1ccc(CN2CCN(Cc3ccccc3)CC2)c(OC)c1	18µM*	2%	-19%[14.3 µM]	0%
11	CCOC(=O)c1ccc(NC(=O)C(CC)Sc2nncn3c2cc2oc(C)cc23)cc1 (stereo not given)	·	?	-1%[46.1 µM]	·
12	N=C1Sc2ccccc2C2=NCCCN12	1.6µM*	12%	·	·

nr	Cruzain Triton	NS1 inh	StopGo reporter	RE007 growth inh
1	·	-6%	12%	4%
2	·	10%	9%	-7%
3	·	3%	-6%	2%
4	-14%	·	1%	·
5	-0.6%	-52%	14µM*	-3%
6	2.6%	2%	-23%	37%
7	·	·	-6%	-9%
8	·	-1%	-5%	9%
9	-1.1%	-19%	0%	0%
10	8.6%	8%	-13%	7%
11	-4.4%	·	-13%	·
12	-7.6%	-25%	·	·

Carrying on:
nr	SMILES	Marburg entry inh	Cruzain inh noDet	LASV entry inh	SARS PLpro yeast
13	Cc1ccc(Nc2c(O)nc[nH]c2=O)cc1C	?	·	30%[46.1 µM]	·
14	COc1ccc(O)c(-c2cn[nH]c2-c2cccs2)c1	-16%	2%	-6%	-2%
15	CCc1ccc(CNC(=O)CN2C(=O)CSc3c2c(C)nn3-c2ccccc2)cc1	·	-14%	-20%[46.1 µM]	·
16	Cn1c(NC(=O)c2cc(-c3ccc4c(c3)OCO4)nc3ccccc23)cc(=O)n(C)c1=O	-16%&-16%	-3%	-24%	-3%
17	Cc1ccnc(NC(=O)CNC(=O)c2ccc3ccccc3c2)c1	14%	·	1%	·
18	O=C(CSc1nc(O)c(C2CCCCC2)c(=O)[nH]1)Nc1ccc(Cl)cc1	3%	-18%	-27%	·
19	COc1ccc(-n2cc(C#N)c(=O)[nH]c2=O)cc1	9%[46.1 µM]	·	22%[46.1 µM]	-1%
20	Oc1c(Br)cc(CNC2CCCCC2)cc1Br	-11%[46.1 µM]	·	15%[46.1 µM]	·
21	C/C(=N/NC(=O)c1sc(=S)n(C)c1C)c1ccccc1	·	?	·	10%
22	COc1ccc2nc(SCC(=O)c3ccco3)[nH]c2c1	?	-27%	13%	2%
23	COc1ccccc1OCCSc1nc2ccccc2n1CC(=O)N1CCOCC1	-8%[46.1 µM]	1%	23%[46.1 µM]	·
24	CCC(C)(C)NC(=O)C(c1cccc(OC)c1OC)N(C(=O)CCC(=O)Nc1cc(C)on1)C(C)C (stereo not given)	16%[46.1 µM]	·	4%	6%

nr	Cruzain Triton	NS1 inh	StopGo reporter	RE007 growth inh
13	·	·	-5%	-7%
14	2.4%	8%	?	3%
15	4.7%	·	-5%	·
16	-0.4%	-16%	44%[activator]	-19%
17	·	·	42%[activator]	19%
18	-19%	-6%	-10%	10%
19	·	4%	-8%	1%
20	·	·	-5%	-6%
21	-4.5%	17%	3%	2%
22	1.0%	-4%	·	-10%
23	3.2%	·	31%[activator]	·
24	·	6%	-16%	2%

(cont.)
nr	SMILES	Marburg entry inh	Cruzain inh noDet	LASV entry inh	SARS PLpro yeast
25	COc1cccc(Cn2cnc3c([N+](=O)[O-])c(C)c(C)cc32)c1	?	·	-2%	-3%
26	Cc1cc(C)nc(SCC(=O)N2CCOCC2)n1	-1%	5%	4%	10%
27	Cc1cccc(NC(=O)Cn2nc3c4ccccc4n(Cc4ccccc4)cc-3c2=O)c1	·	-2%	-7%[46.1 µM]	·
28	COC(=O)c1ccc(NC(=O)Cn2nc(C(=O)Nc3ccc(C)cc3)ccc2=O)cc1	·	2%	-23%[46.1 µM]	1%
29	O=C(C=Cc1ccccc1)NCCNC(=O)C=Cc1ccccc1	?	·	19%[46.1 µM]	·
30	CC(C)CCNC(=O)CN(CC1CCCO1)C(=O)CCC(=O)Nc1nccs1 (stereo not given)	25%	13%	7%	-1%
31	O=C(COc1ccccc1)Nc1ccc([N+](=O)[O-])cc1	4%	-6%	11%	2%
32	O=C(NCCc1ccccc1)c1ccc(CS(=O)(=O)c2ccc(Cl)cc2)o1	·	4%	-28%[46.1 µM]	1%
33	O=C(NNC(=S)NCc1ccc(Cl)cc1)c1cccnc1	10%[46.1 µM]	·	-11%[46.1 µM]	-1%
34	Cc1ccc(-c2csc(NS(=O)(=O)c3cccc(F)c3)n2)o1	20%	·	-10%	-9%
35	C=C1CCC[C@]2(C)C[C@H]3OC(=O)C(CN(C)CC(OC)OC)[C@H]3CC12 (stereo not given in full)	-17%[46.1 µM]	·	9%	1%
36	COc1cccc(NC(=O)Nc2ccc(CC(=O)O)cc2)c1	-4%[46.1 µM]	·	-7%[46.1 µM]	-4%

nr	Cruzain Triton	NS1 inh	StopGo reporter	RE007 growth inh
25	·	·	-21%	7%
26	2.6%	4%	·	-4%
27	-1.2%	·	-12%	·
28	-0.7%	-4%	0%&-1%	-5%
29	·	·	-5%	4%
30	0.0%	-2%	-20%	16%
31	-0.1%	-4%	26%	-1%
32	-0.9%	·	-30%&-12%	1%
33	·	1%	1%	11%
34	·	·	13%	-2%
35	·	7%	-9%	-16%
36	·	6%	14%	-14%

Given in markdown: 3 of the compounds above.
| nr | mol | Marburg entry inh | Cruzain inh noDet | LASV entry inh | SARS PLpro yeast | Cruzain Triton | NS1 inh | StopGo reporter | RE007 growth inh |
| --- | --- | --- | --- | --- | --- | --- | --- | --- | --- |
| 28 | COC(=O)c1ccc(NC(=O)Cn2nc(C(=O)Nc3ccc(C)cc3)ccc2=O)cc1 | · | 2% | -23%[46.1 µM] | 1% | -0.7% | -4% | 0%&-1% | -5% |
| 34 | Cc1ccc(-c2csc(NS(=O)(=O)c3cccc(F)c3)n2)o1 | 20% | · | -10% | -9% | · | · | 13% | -2% |
| 31 | O=C(COc1ccccc1)Nc1ccc([N+](=O)[O-])cc1 | 4% | -6% | 11% | 2% | -0.1% | -4% | 26% | -1% |

New compounds follow.
nr	SMILES	Marburg entry inh	Cruzain inh noDet	LASV entry inh	SARS PLpro yeast
37	CCn1cc(C(=O)O)c(=O)c2cc(F)c(N3CCN(C(=S)NC(=O)c4ccc(F)c(F)c4)CC3)cc21	·	·	·	-1%
38	CC(C)(C)n1nc2c(c1NC(=O)c1cc([N+](=O)[O-])ccc1Cl)CS(=O)(=O)C2	·	·	·	-2%
39	CNc1ccccc(-c2ccc3cc4c(cc3n2)OCO4)c1=O	14%	-22%	?	-43%
40	Cc1ccc(-c2cc(C(F)F)n3ncc(C(=O)NN4CCCCC4)c3n2)cc1	-3%[46.1 µM]	·	8%	1%
41	CC(C)CC(=O)Nc1ccc(S(=O)(=O)N2CCCC2)cc1	·	·	·	-1%
42	CC1N(C)c2cc(NC(=O)c3cccs3)c(P(=O)(Nc3ccc([N+](=O)[O-])cc3)N3CCOCC3)cc2C1(C)C (stereo not given)	?	·	?	3%
43	CCNc1nc(NCC)n2c(SCC(=O)O)nnc2n1	24%	-3%	0%	-3%
44	CCN(c1ccccc1)S(=O)(=O)c1ccc(OC)c(NC(=O)Cn2cnc3c2c(=O)n(C)c(=O)n3C)c1	12%[46.1 µM]	·	10%	-2%
45	CCCOc1ccccc1Cn1c(=O)oc2ccc(C)cc21	-18%	9%	-3%	-16%
46	O=C(NCc1ccc(F)cc1)c1cc(-c2ccncc2)nc2ccccc12	-6%	·	23%	0%
47	O=C(NCCN1CCOCC1)/C(=C/c1ccccc1)NC(=O)c1ccccc1	3%[46.1 µM]	·	14%	-1%
48	O=C(NCc1ccco1)C1CC(O)CN1C(=O)Nc1ccccc1 (stereo not given)	0%[46.1 µM]	·	1%	-1%
49	COc1ccc(N2CC(C(=O)Nc3ccccc3-c3nc(-c4ccc(C)cc4)no3)CC2=O)cc1 (stereo not given)	-2%[46.1 µM]	1%	4%[46.1 µM]	·
50	Cc1ccc(C)c(N2CCN(CCCNC(=O)c3ccc4nc(N5CCC(C)CC5)sc4c3)CC2)c1	?	10%	?	·
51	O=C(C(=O)N1CCN(c2cccc(Cl)c2)CC1)N1CCCCC1	-1%[46.1 µM]	·	6%	-1%

nr	Cruzain Triton	NS1 inh	StopGo reporter	RE007 growth inh
37	·	4%	-5%	4%
38	·	-10%	?	-5%
39	-11%	3%	32%[activator]	?
40	·	5%	-26%	0%
41	·	4%	-17%	16%
42	·	14%	0%	9%
43	-4.3%	10µM*	6%	1%
44	·	·	-13%	-14%
45	-5.1%	-50%	-28%	22%
46	·	-20%	-26%	2%
47	·	4%	-10%	-25%
48	·	1%	-7%	6%
49	-0.5%	·	53%[activator]	·
50	-2.2%	·	?	·
51	·	-1%	-5%	5%

Copied from the list.
compound 51 – SARS PLpro yeast: -1%
compound 38 – RE007 growth inh: -5%
compound 39 – NS1 inh: 3%

Compound activity: PubChem BioAssay, National Center for Advancing Translational Sciences (NCATS)
